Compound activity: PubChem, SRMLSC
H5N1 antiviral: antiviral screen in MDCK cells, H5N1 avian flu | cytopathic effect, luminescence, 72 h; hits give high values; no value below 0 was filed and about half of the inactive calls have no number; reference of the scale not given here | inhibition, % at 50 µM | actives 0.07% (n = 96,000); in the data active = inhibition above about 25%
Starred values were filed as active, the others as inactive; i = inactive.

Start of the data: the first 5 entries (preview)
SMILES | H5N1 antiviral
COc1ccc(CN2C(=O)c3ccccc3C2C(=O)NCC2CCCO2)c(OC)c1 (configuration not stated) | 0.8
CCOC(=O)C1CCN(c2nc(-c3ccccc3)nc3c2oc2ccccc23)CC1 | i
Cc1ccccc1-c1nc2ccccc2c(=O)n1C1CCS(=O)(=O)C1 (configuration not stated) | 1.4
CCC(C)NC(=O)c1ccc(CSCc2cccc(F)c2)o1 (configuration not stated) | 0.5
Cc1cc(C)cc(NC(=O)CSc2nc3c(c(=O)n2C)SC(C)C3)c1 (configuration not stated) | 1.2

All compounds of this part, from the first entry:
SMILES | H5N1 antiviral
COc1ccc(CN2C(=O)c3ccccc3C2C(=O)NCC2CCCO2)c(OC)c1 (configuration not stated) | 0.8
CCOC(=O)C1CCN(c2nc(-c3ccccc3)nc3c2oc2ccccc23)CC1 | i
Cc1ccccc1-c1nc2ccccc2c(=O)n1C1CCS(=O)(=O)C1 (configuration not stated) | 1.4
CCC(C)NC(=O)c1ccc(CSCc2cccc(F)c2)o1 (configuration not stated) | 0.5
Cc1cc(C)cc(NC(=O)CSc2nc3c(c(=O)n2C)SC(C)C3)c1 (configuration not stated) | 1.2
CCC1(C)CC(CC(=O)O)(c2ccccc2OC)CCO1 (configuration not stated) | i
C=CCNC1=C(Cl)C(=O)N(c2ccccc2Cl)C1=O | 0.0
COc1cc(S(=O)(=O)n2nc(C)cc2C)c(OC)cc1Cl | i
CCCc1ccc(-c2cc(C(=O)NCCc3ccc(S(N)(=O)=O)cc3)c3ccccc3n2)cc1 | i
Cn1cc(SCC(=O)Nc2ccc3c(c2)OCCO3)c2ccccc21 | 0.1
COc1cc(OC)cc(-c2nnc(SCC(=O)N3CCCc4ccccc43)o2)c1 | i
CC(C)C(=O)Nc1ccc(N2CCCC2)cc1 | 0.5
CCc1ccccc1OCC(=O)Nc1ccc(S(N)(=O)=O)cc1 | i
Cc1cc(C)cc(OCc2nnc(SCC(=O)c3ccc(Br)cc3)o2)c1 | i
CCOc1ccc(-c2nc(CSc3nncs3)cs2)cc1OC | 0.7
CCSc1nnc(NC(=O)CSc2nccn2-c2cc(C)cc(C)c2)s1 | 0.3
CC1CC(C)CN(C(=O)COC(=O)c2ccc[nH]c2=O)C1 (configuration not stated) | i
O=C1N(CN2CCC3(CC2)OCCO3)c2ccccc2C12OCCCO2 | i
Nc1nc(Br)c2c(F)cccc2c1-c1ccc(F)cc1 | i
Cc1noc(C)c1COc1cccc(C(=O)Nc2ccc(C#N)cc2)c1 | 0.6
Cc1cccc(C#N)c1NC1=CC(=O)CC(C)(C)C1 | i
COc1cccc(-c2cc(C(=O)N3C(C)CCCC3C)no2)c1 (configuration not stated) | i
CCOC(=O)CCC(=O)c1c(C)oc2ccc(OC)cc12 | 1.8
CCOc1ccc2c(c1)s/c(=N\S(=O)(=O)c1ccc(OC)cc1)n2C(F)F | 0.5
CC(C)C(C(=O)Nc1sc2c(c1C#N)CCCCC2)N1C(=O)c2ccccc2C1=O (configuration not stated) | 1.4
c1ccc(Cc2nn3c(COc4ccccc4)nnc3s2)cc1 | i
COc1ccc2c(c1)C(=O)OC2CC(=O)O (configuration not stated) | i
CCN(CC)CC(=O)n1c2c(c3ccccc31)CCCC2 | 1.4
CCc1nnc(NC(=O)CSc2nnc(C3CCCCC3)n2-c2cccc(Cl)c2)s1 | 4.9
Cc1ccc(-c2nnn(CC(=O)O)n2)cc1 | 0.2
c1ccc(-c2noc(CSc3nnnn3-c3ccccc3)n2)cc1 | 1.1
CC(=NCCO)c1c(O)n(C2CCCCC2)c(=O)[nH]c1=O | 0.3
CCC(=O)NCCNC(=O)c1c(SC)nsc1SC | 0.4
CC(C)CCn1c(CN2CCOCC2)nc2c1c(=O)n(C)c(=O)n2C | 6.6
CCOC(=O)c1sc(C)c2c1NC1(CCCCCC1)NC2=O | 4.9
O=C(NNC(=O)c1sccc1-n1cccc1)c1ccc(Cl)cc1 | 0.7
COc1cccc2sc(Nc3nc(-c4ccccn4)cs3)nc12 | 0.8
O=C(NC1CCCCC1)C(c1ccc(Cl)cc1)N1CCC2(CC1)OCCO2 (configuration not stated) | 0.3
O=C(CSc1nnnn1Cc1ccccc1)Nc1ccc2c(c1)OCCO2 | i
O=C(CCCC(=O)N(CC(=O)NC1CCCCC1)Cc1ccco1)Nc1ccccn1 | 0.4
CCOC(=O)C1=C(CC)OC(N)=C(C#N)C1c1cc(OC)ccc1OC (configuration not stated) | i
COc1cccc(/C=N/NC(=O)c2ccc(OCc3cccc(Br)c3)cc2)c1 | 3.5
COc1ccc(OCc2nnc(SCC(=O)N3c4ccccc4Sc4ccc(Cl)cc43)o2)cc1 | 1.2
CCC1CCCCN1CC(=O)c1c(C)[nH]c2ccccc12 (configuration not stated) | i
Cc1ccc(Cn2c(=S)[nH]c3ccc(N4CCOCC4)cc3c2=O)o1 | i
Cc1nc(C(=O)Nc2ccc(Cl)cc2Cl)nn1-c1cc(OC(C)C)c(Cl)cc1Cl | i
NC(=O)C1(N2CCCCC2)CCN(c2nc(-c3ccccc3)cs2)CC1 | 4.9
Cc1ccc2c(c1)c1c(n2C)C(C(N)=O)CCC1 (configuration not stated) | 0.3
Cc1ccc(S(=O)(=O)C(C#N)c2nc3ccccc3nc2OC(C)C)cc1 (configuration not stated) | i
O=C(COC(=O)c1cncc(Br)c1)NCCC1=CCCCC1 | 0.1
O=C1CN(C(=O)c2cc(Br)c(Br)s2)c2ccccc2N1 | 1.4
COC(=O)c1ccccc1NC(=O)CSc1nccn1C | 1.1
Cc1cc(C)nc(/N=C(\N)Nc2ccc(C)c([N+](=O)[O-])c2)n1 | i
COc1ccccc1NC(=O)N(Cc1ccccc1)c1ccccn1 | i
O=C(CSc1nc2ccccc2n1CC(=O)N1CCCC1)N1CCN(C(=O)c2ccco2)CC1 | i
COc1ccc(C(=O)Nc2cccc(C(C)=O)c2)cc1OC | i
COc1ccc(-c2ccc(CCC(=O)O)n2NC(=O)c2cccs2)cc1 | i
CCC(C)c1ccc(O)c(NC(=O)c2cccnc2)c1 (configuration not stated) | i
CN1CCc2c(sc(N)c2C(N)=O)C1 | 0.6
FC(F)(F)c1ccccc1CN1CCN(Cc2ccccc2)CC1 | i

The listing continues.
SMILES | H5N1 antiviral
CSc1nc(-c2ccco2)nn1C(=O)c1ccc(Cl)cc1 | 0.2
Cc1cc(=O)n2[nH]c(-c3ccc(C(C)(C)C)cc3)cc2n1 | 1.2
COC(=O)c1cn(CC(=O)NCc2cccs2)c2ccccc12 | 0.9
CCn1c(=O)c2cc(C(=O)Nc3cc(C)on3)sc2c2ccccc21 | 0.5
CCN(CC(=O)Nc1ccc2c(c1)OCCO2)S(=O)(=O)c1ccc(C)cc1 | 1.9
Cc1[nH]nc2c1/C(=N/O)CC(c1ccccc1)C2 (configuration not stated) | i
Cc1cc(C)c(S(=O)(=O)N2CCN(CCO)CC2)c(C)c1 | 0.1
CC(C)(C)C(=O)CN1CCN(S(=O)(=O)c2ccc(F)cc2)CC1 | 1.1
Cc1cccc(N2C(=O)NC(=O)/C(=C\c3cccn3-c3ccc(Cl)cc3)C2=O)c1 | 0.1
O=C(Cn1nc(-c2ccc(N3CCOCC3)c([N+](=O)[O-])c2)c2ccccc2c1=O)N1CCCCC1 | i
COc1ccccc1C1C2CCCCC2(O)CCN1CC(=O)Nc1ccccc1 (configuration not stated) | i
Cn1c(=O)[nH]c(=O)c2c1nc(SCCN1CCOCC1)n2Cc1ccccc1 | 1.4

3 of the compounds above, with tabs:
SMILES	H5N1 antiviral
CC(C)(C)C(=O)CN1CCN(S(=O)(=O)c2ccc(F)cc2)CC1	1.1
Cc1cccc(N2C(=O)NC(=O)/C(=C\c3cccn3-c3ccc(Cl)cc3)C2=O)c1	0.1
O=C(Cn1nc(-c2ccc(N3CCOCC3)c([N+](=O)[O-])c2)c2ccccc2c1=O)N1CCCCC1	i

(more compounds)
SMILES | H5N1 antiviral
Cn1c(=O)c2c(ncn2CC(=O)Nc2nnc(Cc3ccccc3)s2)n(C)c1=O | 0.4
COc1ccc(OC)c(CCNC(=O)CS(=O)(=O)Cc2nc(-c3ccccc3C)oc2C)c1 | 0.3
c1ccc(-c2cc(N3CCOCC3)nc3ccccc23)cc1 | i
CCOC(=O)c1c(-c2ccccc2)nc2cc(C)ccn12 | i
COc1ccc(-c2nc(CSCC(=O)NCCC3=CCCCC3)c(C)o2)cc1OC | 0.4
CC1(C)c2ssc(=S)c2-c2ccccc2N1C(=O)CSC1=NCCS1 | 2.7
COc1ccc(C(CC(=O)NC(C)(C)C)n2cccc2)cc1 (configuration not stated) | i
CCSc1nnc(NC(=O)Cc2ccc(OC)c(S(=O)(=O)N3CCOCC3)c2)s1 | 0.2
Cc1ccc(C)c(C(=O)COc2ccc(C)nc2[N+](=O)[O-])c1 | i
Cn1c(C(=O)N2COCC2(C)C)cc2c(=O)n3ccccc3nc21 | 0.3
COCCn1c(=O)[nH]c2cc(C(=O)OC)ccc2c1=O | 0.6
N/C(=N\OC(=O)c1cc(-c2ccccc2)nc2ccccc12)c1ccncc1 | 0.6

Random excerpt: 3 records from the list
SMILES | H5N1 antiviral
Cc1cc(C)c(S(=O)(=O)N2CCN(CCO)CC2)c(C)c1 | 0.1
Cc1cccc(N2C(=O)NC(=O)/C(=C\c3cccn3-c3ccc(Cl)cc3)C2=O)c1 | 0.1
Cn1cc(SCC(=O)Nc2ccc3c(c2)OCCO3)c2ccccc21 | 0.1

The listing continues:
SMILES | H5N1 antiviral
O=C1CCCc2nc(N3CCCCC3)sc21 | 0.6
N#C/C(=C/C=C/c1ccccc1)C(=O)Nc1ccccc1 | i
CCOc1c(Cl)cc(CNCC(C)C)cc1OC | 0.4
O=C(/C=C/Nc1ccc(F)cc1)c1ccco1 | 1.6
CC1(C)Oc2ccc(C(=O)NC3CCCC3)cc2N(CC(=O)NC2CCCCC2)C1=O | i
Cc1cc(C)cc(N(CC(=O)NCc2ccco2)C(=O)CCC(=O)Nc2ccccn2)c1 | 1.4
Cc1cc(O)c(-c2cc(C(=O)Nc3ccc(S(=O)(=O)N4CCOCC4)cc3)[nH]n2)cc1C | i
COc1ccccc1CC(=O)Nc1ccc(-c2nnc(-c3ccco3)o2)cc1 | i
Cc1sc2nc(-c3ccco3)oc(=O)c2c1C | 3.9
Cc1nc(-c2ccccc2)sc1-c1nc(-c2cccs2)ncc1S(=O)(=O)c1ccccc1 | 0.7
O=C(c1cc2nc(-c3ccccc3)cc(C(F)(F)F)n2n1)N1CCOCC1 | 1.3
COC(=O)c1ccc(NC(=O)CN(C2CCCCC2)S(C)(=O)=O)cc1 | i
O=C(Nc1ccc(Br)cc1)c1cccc(NC(=O)C2C3CC4OC(=O)C2C4C3)c1 (configuration not stated) | i
CCCn1c(=O)c(C(=O)c2ccccc2)nc2ccccc21 | 0.5
Cc1ccc(-n2nc(N)c3c(=O)oc(N(C)C)nc32)cc1 | i
Cc1nc(SCCO)c2oc3ccccc3c2n1 | i
Cc1nnc(NC(=O)CSc2nnc(Cc3cccn3C)n2-c2cccc(C)c2C)s1 | 0.8
CCCCC(=O)Nc1ccc(Cl)cn1 | 0.3
O=C(O)CN1C(=O)COc2cc(S(=O)(=O)N3CCCC3)ccc21 | 0.9
CC(=O)Nc1ccc(NC(=O)Cn2cc3c(n2)CCCC3)cc1 | i
NC1=NC(c2ccc(Br)cc2)n2c(nc3ccccc32)N1 (configuration not stated) | i
CCOc1ccccc1-c1nc(-c2ccc(NC(=O)c3ccc(Br)o3)cc2)no1 | i
COc1cc(NC(=O)CN2CCN(S(=O)(=O)c3ccc(C(C)C)cc3)CC2)cc(OC)c1 | 1.3
COc1ccccc1CN(Cc1ccco1)S(=O)(=O)c1ccc(-n2cnnn2)c(OC)c1 | 1.0
O=C1C2=C(c3ccccc31)[N+](=O)[C@@H]1CCCC[C@@H]1N2[O-] | 1.6
COCCN(C(=O)Cc1cccs1)C(C(=O)NCc1ccc(OC)cc1)c1ccc(C(C)C)cc1 (configuration not stated) | i
COC(=O)/C=C1/S/C(=N/NC(=O)c2ccccc2C)NC1=O | i
COc1ccc(CCN2C(=O)CC(Nc3ccc(N4CCOCC4)cc3)C2=O)cc1OC (configuration not stated) | 0.4
CN1CCc2c(sc3nc(SCC(N)=O)n(-c4ccccc4)c(=O)c23)C1 | 1.4
COc1ccccc1NC(=O)Cc1noc(CSc2cc(C)c3ccccc3n2)n1 | i
Cc1nc2cc(C(=O)OCC(=O)NC3CCS(=O)(=O)C3)ccc2n1-c1ccccc1 (configuration not stated) | 0.1
COc1ccc(C)cc1S(=O)(=O)N(CC(=O)O)c1ccc(F)cc1 | 0.5
CCc1nccn1S(=O)(=O)c1ccc(OC)c(C)c1C | i
O=C(CNC(=S)N(Cc1ccccc1F)C1CCCCC1)NC1CC1 | i
CC(=O)Nc1ccc(N2CCCC2)cc1 | 0.6
COc1ccc(C(=O)NCCn2ccc3ccccc32)cc1 | 1.3
C=CCSc1nnc(NC(=O)CSc2ccccn2)s1 | 2.1
COc1cccc(C(=O)Nc2nc(-c3ccc(S(=O)(=O)N4CCOCC4)cc3)cs2)c1 | 0.2
COc1cc(C(=O)N2CCC(NC(=O)C(Cc3ccccc3)NC(C)=O)CC2)cc(OC)c1OC (configuration not stated) | 0.8
CCOC(=O)c1cc2occc2n1CC(=O)NC1CCCCC1C (configuration not stated) | 0.5
CCn1c2ccccc2c2cc(CN3CCN(C(=O)c4ccco4)CC3)ccc21 | i
CC(c1ccc(F)cc1)n1c(-c2ccc3ccccc3n2)n[nH]c1=S (configuration not stated) | 0.7
Brc1ccc2ncnc(Nc3cccc4ccccc34)c2c1 | i
O=C(Oc1ccc(C(=S)N2CCOCC2)cc1Br)c1cc(Cl)ccc1Cl | i
O=C(c1cc(-c2ccc3c(c2)OCO3)on1)N1CCN(c2ccc(F)cc2)CC1 | i
Clc1ccccc1CSc1snnc1-c1ccccc1 | i
COc1ccc(Cc2nnc(SCC(=O)c3cccc([N+](=O)[O-])c3)n2C)cc1 | 4.4
Cn1c2ccccc2c2cc(C(=O)N3CCN(CCO)CC3)sc21 | i

This is a subset (hit frequency here may not be typical).
